Bst PK mod – pyruvate kinase (B. stearothermophilus) modulation; AID 361; partly purified Bacillus stearothermophilus pyruvate kinase, luminescence ATP production; ribose 5-phosphate activator present at AC10; Potency, µM; hit rate 1.2% among 51,000; in the data active means potency below about 11 µM; inconclusive means mostly about 12 µM to 25 µM; inactive means weaker than that;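 the screen sought inhibitors and activators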;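 also: potency is read from the fitted curve at half-maximal effect; scaled between full activation by ribose 5 phosphate and full inhibition by luteolin; about four in five hits inhibit and the cells do not say which; series up to 57 µM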
TsaE inh – inhibitors of E. coli YjeE (TsaE); purified YjeE, fluorescence polarisation of a bound ADP probe; Potency, µM; hit rate 0.05% among 71,000; P0AF67; active = well fitted falling curve; inconclusive = weaker or top-dose-only fall, or a rising curve; inactive = flat or poorly fitted curve;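 also: top concentration of the series not given in the record; excess ADP was the control for the full effect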
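Purified YjeE (10 uM) with BODIPY Texas Red-labeled ADP probe (2 uM); compounds pin-transferred, 15 min at room temperature. Binding inhibition read as decreased fluorescence polarization; ADP titration as control.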
* hit, by the source's call; i = inactive; ? = inconclusive; nt = no result given. These rows are one share of the data; rates above refer to the full screens.

SMILES | Bst PK mod | TsaE inh
CCc1n[nH]c2c1C(=O)CC(C)(C)C2 | >57 | i
CCOC(=O)N1CC=C2C(C#N)=C(N)C(C#N)(C#N)[C@H](c3ccc(OC(C)C)c(OCC)c3)[C@H]2C1 | >57 | i
O=C(COc1ccccc1)N1CCN(S(=O)(=O)Cc2ccccc2)CC1 | >57 | ?
O=C(O)COc1nsnc1N1CCOCC1 | >57 | i
CC1(c2ccncc2)Nc2ccccc2-c2nc3ccccc3n21 (stereo not drawn) | >57 | i
COc1ccc(C2=NOC(CN3C(=O)c4ccccc4S3(=O)=O)C2)cc1 (stereo not drawn) | i | i
O=C1CC(C(=O)NC2CCCCC2)C(c2ccccc2)O1 (stereo not drawn) | >57 | i
CCOC(=O)C1CCN(C(=O)c2c(-c3c(F)cccc3Cl)noc2C)CC1 | >57 | i
Cc1ccc(-c2nn(CC(=O)NCC3CCCO3)c(=O)c3ccccc23)cc1 (stereo not drawn) | >57 | i
O=S(=O)(NCc1ccc2c(c1)OCO2)c1cnc[nH]1 | nt | i
COc1ccc(Oc2ncc3nc(-c4cn(C)c5ccccc45)c(=O)n(C4CC4)c3n2)cc1 | nt | i
c1ccc(OCCSc2nc3ccccc3o2)cc1 | nt | i
CSc1nc2oc3c(c2c2nncn12)CC(C)(C)SC3 | nt | i
CCn1c(=NC(=O)CSC(C)=O)sc2cc(OC)ccc21 | nt | i
C=C(C)CSc1nnc([C@H](CCSC)NC(=O)OC(C)(C)C)o1 | >57 | i
OC12CCCCC1C(c1ccc3c(c1)OCO3)N(Cc1ccccc1F)CC2 (stereo not drawn) | >57 | i
CC(C)Cn1c2nc3ccccc3nc2c2c(=O)n(CCN3CCOCC3)cnc21 | >57 | i
N#Cc1c(SCc2ccccc2)nc(N2CCOCC2)c2c1CCCC2 | nt | i
COc1ccccc1N(O)C1CC(=O)N(c2ccc(F)cc2)C1=O (stereo not drawn) | >26 | nt
Cc1ccc(N)cc1[N+](=O)[O-] | nt | i
CSCC[C@H](NC(=O)OC(C)(C)C)c1nnc(SCC(=O)Nc2c(C)cccc2C)o1 | >57 | i
Cc1c(C(=O)O)nn(-c2ccccc2)c(=O)c1C#N | nt | i
CN1C(=O)/C(=C2\SC(=S)N(C(CCC(=O)O)C(=O)O)C2=O)c2ccccc21 (stereo not drawn) | nt | i
CC(C)(C)NC(=O)C1N(c2cccnc2)C(=O)C2C(C(=O)Nc3ccccc3F)C3(C)C=CC21O3 (stereo not drawn) | >57 | i
O=C(CSc1nc2ccccc2c(=O)n1-c1ccccc1)N1CCN(CCO)CC1 | nt | i
c1ccc(-c2nn3c(Cn4nnc5ccccc54)nnc3s2)nc1 | >57 | i
CN(C)S(=O)(=O)N1CCN(S(=O)(=O)c2ccc(F)cc2)CC1 | >57 | i
CC(=O)Oc1cc(C(F)(F)F)ccc1C(=O)O | nt | i
CC(=O)Nc1ccc(-c2nc(C)c(C(C)=O)n2O)cc1 | 6.6* | i
CCOc1cccc(C2c3c(oc4cc(C)c(C)cc4c3=O)C(=O)N2CCCN(C)C)c1 (stereo not drawn) | nt | i
O=C(c1ccncc1)N1CCC2(CC1)CCN(c1ccccc1)CC2 | nt | i
CC(C)=CCC(C)(C)C1OCCN1C(=O)c1ccccc1 (stereo not drawn) | nt | i
COc1ccc(NC(=O)c2oc3ccccc3c2NC(=O)c2ccc(OC)c(OC)c2)c(OC)c1 | >11 | i
NC(=O)CSc1ncc(-c2ccccc2)[nH]1 | >57 | i
COc1ccccc1CNc1nc(-c2ccccc2CN(C)C)nc2ccccc12 | nt | i
COC(=O)CCCC(=O)OC | nt | i
CCCNC(=O)c1[nH]c(C)c(C(C)=O)c1C | >57 | i
CCCNC(=O)C1=C(C)C(=O)OC12CCC(C)CC2 (stereo not drawn) | nt | i
COc1ccc(Cc2nnc(SCC(=O)N3CCc4ccccc4C3)o2)cc1 | >57 | i
CC(C)C1N=C2c3ccccc3N=C(SCC(=O)c3ccc(O)c(O)c3)N2C1=O (stereo not drawn) | >57 | i
O=C(COc1ccc(F)c(Cl)c1)c1ccc[nH]1 | >57 | i
COc1ccc(C(=O)N2CCC3(CCN(Cc4nccs4)CC3)CC2)cc1 | nt | i
Cc1[nH]nc2nc3c(c(OC(=O)c4ccccc4)c12)c(=O)n(C)c(=O)n3C | nt | i
O=C(CSc1nnc(-c2ccco2)o1)c1ccc(F)c(F)c1 | >57 | i
O=C(O)C1C2CCC(O2)C1C(=O)NCCC1=CCCCC1 (stereo not drawn) | >57 | i
N#Cc1cc2cc3c(cc2nc1SCC(=O)OC1CCCCC1)OCO3 | >57 | i
O=C(CSc1nnnn1-c1ccccc1)N1CCc2ccccc21 | >57 | i
Cc1cc(NC(=O)CCCSc2nc(-c3ccco3)cc(C(F)(F)F)n2)no1 | >57 | i
Cn1cccc1Cc1nnc(SCC(=O)Nc2ccc3c(c2)OCCO3)n1-c1ccc(F)cc1 | nt | i
O=C(CN1C(=O)CSc2ccccc21)N1CCc2ccccc21 | >57 | i
CCCn1c(=O)c2[nH]c(-c3ccc(OCC(=O)Nc4ccc(C#N)cc4)cc3)nc2n(CCC)c1=O | nt | i
CC(C(=O)NC1CCCC1)N(C(=O)c1snc(C(N)=O)c1N)c1ccc2c(c1)OCCO2 (stereo not drawn) | nt | i
Cc1ccc(S(=O)(=O)Nc2nc3ccc(S(=O)(=O)N4CCCC4)cc3s2)cc1 | >57 | i
Cc1cc(C(=O)NC(C)c2ccncc2)cs1 (stereo not drawn) | >57 | i
CCc1nnc(NC(=O)CC(=O)Nc2ccccc2C(=O)O)s1 | >57 | i
CCCC(CCC)C(=O)O | nt | i
O=C(CSc1nnc(CNc2ccc(F)cc2)o1)N1CCCc2ccccc21 | >57 | i
CCOC(=O)c1c(-c2ccccc2)oc2ccc(O)c(CN3CCOCC3)c12 | >57 | i
O=[n+]1c2c(n([O-])c3c1CCC3)CCCC2 | >57 | i
CN(C)C(=O)N1CCC(C(=O)NCc2ccccc2Cl)CC1 | >57 | i
The list goes on:
SMILES | Bst PK mod | TsaE inh
CC1CC(C)CN(C(=O)CSCC(=O)Nc2nc(-c3cccs3)cs2)C1 (stereo not drawn) | nt | i
Cc1csc(SCC(=O)NC(=O)NCc2ccccc2)n1 | >57 | i
CN(C)S(=O)(=O)NCc1ccc2c(c1)OCO2 | >57 | i
CN(C)c1ccc(C(=C2C=CC(=[N+](C)C)C=C2)c2c(O)c(S(=O)(=O)O)cc3cc(S(=O)(=O)O)ccc23)cc1 | nt | i
O=C(CN1C2=NCCN2c2ccccc21)c1ccc(Br)cc1 | >57 | i
COc1ccc(C2CC(c3cccc(OC)c3OC)n3nnnc3N2)cc1 (stereo not drawn) | nt | i
COC(=O)C1(S(=O)(=O)c2ccc(C)cc2)CCOCC1 | >57 | i
C=CCc1c(C)nc(SCCC)[nH]c1=O | >26 | nt
Cc1nc(SCC(=O)NCc2ccccc2)c2c(=O)n(C)c(=O)n(C)c2n1 | nt | i
CCCn1c(SCC(=O)Nc2nnc(CC)s2)nc2c1c(=O)n(C)c(=O)n2C | >57 | i
CCC(=O)N1CCc2cc(S(=O)(=O)NCCC(=O)N3CCc4ccccc4C3)ccc21 | >57 | i
Cc1c(C(=O)Nc2ccc(N3CCOCC3)cc2)oc2ccccc12 | ? | i

Full records, looked up by structure.
Cc1nc(SCC(=O)NCc2ccccc2)c2c(=O)n(C)c(=O)n(C)c2n1 across the screens: Bst PK mod: nt; TsaE inh: i
COC(=O)C1(S(=O)(=O)c2ccc(C)cc2)CCOCC1 across the screens: Bst PK mod: >57; TsaE inh: i
CN(C)c1ccc(C(=C2C=CC(=[N+](C)C)C=C2)c2c(O)c(S(=O)(=O)O)cc3cc(S(=O)(=O)O)ccc23)cc1 across the screens: Bst PK mod: nt; TsaE inh: i

New compounds follow.
SMILES | Bst PK mod | TsaE inh
CCN(CC)C(=O)CN1CCN(c2ncccn2)CC1 | >57 | i
Nc1ccc2cc3ccccc3cc2c1 | nt | i
COc1cc(NC(=O)c2ccco2)c(OC)cc1NC(=O)CCC(=O)Nc1cccc(C)c1C | >57 | i
COc1ccc(N(C)S(=O)(=O)c2cccc(C(=O)NC3=NCCS3)c2)cc1 | >57 | i
Cc1cc(C(=O)Nc2nnc(C(F)(F)F)s2)no1 | >57 | i
O=C(Cn1c(=O)n(CC2CCCO2)c(=O)c2ccccc21)N1CCN(c2ccccc2)CC1 (stereo not drawn) | >57 | i
S=C1SCN(Cc2ccccn2)CN1Cc1ccco1 | >57 | i
CCCCC1CC1C(=O)Nc1ccc(OC)c(OC)c1 (stereo not drawn) | >11 | nt
O=C1CC(c2ccccc2)CN1C(=O)c1ccccc1 (stereo not drawn) | nt | i
COc1ccc(-c2nc3scc(-c4ccccc4)n3n2)cc1 | >57 | i
O=C(COc1ccccc1Cl)NC(=O)NC1CCCC1 | >57 | i
FC(F)Oc1cccc2cccnc12 | >57 | i
O=C(CSc1nnc(CCc2nc3ccccc3[nH]2)n1-c1ccccc1)NCc1ccco1 | >57 | i
C#CCOC(=O)[C@H](N)CC(N)=O | nt | i
NC(=O)CC12CC3CC(C1)CC(CC(N)=O)(C3)C2 | >57 | i
COc1ccc(OCCSc2nnnn2C2CCCCC2)cc1 | >57 | i
CCOC(=O)Cc1csc(NC(=O)CSc2nnc(-c3ccc(F)cc3)o2)n1 | >57 | i
CC(C)CCNC(=O)NC(=O)CSc1nnc(-c2ccccc2F)n1N | >57 | i
CC1=C(Sc2nc3ccccc3[nH]2)C(=O)NC(C)(C)C1 | >57 | i
Nc1cccc(-c2nc3ccccc3[nH]2)c1 | nt | i
COc1cc(Br)cc2cc(C(=O)N3CCCCC3C)c(=O)oc12 (stereo not drawn) | >57 | i
COC(=O)N1[C@H](C)C=C[C@]1(Cc1ccccc1)C(=O)NCCCNc1ncc(C(F)(F)F)cc1Cl | nt | i
COC(=O)c1ccc(Cn2cnc3c(cnn3-c3ccc(C)c(C)c3)c2=O)o1 | >57 | i
O=C(Cn1nc(-c2cccc(Cl)c2)ccc1=O)Nc1cccnc1 | >57 | i
O=C(CN(c1ccc2c(c1)OCCO2)S(=O)(=O)c1ccccc1)NCC1CCCO1 (stereo not drawn) | >57 | i
COC(=O)c1ccc(-c2n[nH]c(=O)c3ccccc23)cc1 | >57 | i
CCOC(=O)C1=C(CN2CCC(C)CC2)NC(=O)NC1c1ccc(Cl)cc1 (stereo not drawn) | >57 | i
COc1ccc(N=C2C(=O)Nc3c(C)cccc32)cc1 | >57 | i
c1ccc(-n2cnnc2SCc2nc3ccccc3s2)cc1 | >57 | i
CC(C)(C)NC(=O)COC(=O)c1snc(C(=O)NC2CCCCC2)c1N | >57 | i
CCN1CCN(C(c2ccccc2OC)c2nnnn2C2CCCCC2)CC1 (stereo not drawn) | >57 | i
O=C(CCn1c(=O)[nH]c2ccsc2c1=O)N1CCc2ccccc2C1 | >57 | i
O=c1[nH]c2ccc(S(=O)(=O)N3CCCCC3)cc2[nH]1 | >57 | i
CN(C)c1ccc(NC(=O)c2ccc(COc3cccc(Cl)c3)o2)cc1 | nt | i
Cc1ccc2[nH]c3c(N4CCN(Cc5ccccc5)CC4)ncnc3c2c1 | >11 | nt
O=S(=O)(c1ccc2c(c1)OCCO2)N1CCC(c2nc3ccccc3s2)CC1 | >57 | i

With a hit mark in Bst PK mod (from the list above):
SMILES | Bst PK mod | TsaE inh
CC(=O)Nc1ccc(-c2nc(C)c(C(C)=O)n2O)cc1 | 6.6* | i

In the list so far, these contain a CF3 group.
SMILES | Bst PK mod | TsaE inh
CC(=O)Oc1cc(C(F)(F)F)ccc1C(=O)O | nt | i
Cc1cc(NC(=O)CCCSc2nc(-c3ccco3)cc(C(F)(F)F)n2)no1 | >57 | i
Cc1cc(C(=O)Nc2nnc(C(F)(F)F)s2)no1 | >57 | i
COC(=O)N1[C@H](C)C=C[C@]1(Cc1ccccc1)C(=O)NCCCNc1ncc(C(F)(F)F)cc1Cl | nt | i

More records
SMILES | Bst PK mod | TsaE inh
O=C(NC1CCCC1)C(c1ccc(N2CCOCC2)cc1)N(Cc1ccco1)C(=O)c1ccco1 (stereo not drawn) | >57 | i
CC1Cc2nc(SCC(=O)Nc3ccc(F)cc3F)n(C)c(=O)c2S1 (stereo not drawn) | >57 | i
O=C(O)c1nn(-c2ccc(Cl)cc2)c2c1C(=O)c1ccccc1C2=O | nt | i
CCC/C(O)=C1\C(=O)CCCC1=NC(C)C(=O)O (stereo not drawn) | >57 | i
CC(=O)N1CCC2(CCN(Cc3nccs3)CC2)CC1 | nt | i
C(=C\c1ccccc1)/CN1CCN(c2ncnc3c2oc2ccccc23)CC1 | i | i
c1ccc(CNc2ccnc(-c3ccoc3)n2)cc1 | nt | i
NC(=O)CSc1nnc(-c2ccc(S(=O)(=O)N3CCOCC3)cc2)n1Cc1ccccc1 | >57 | i
CC(C)(C)n1nc2c(c1NC(=O)c1ccc(S(=O)(=O)N3CCCC3)cc1)CS(=O)C2 (stereo not drawn) | >57 | i
O/C(=C\Sc1nnc(Cc2ccccc2)o1)c1ccc(Br)cc1 | >57 | i
Cc1[nH]c(C)c(CN(C)C)c1CN(C)C | nt | i
Cc1ccc(CN2C(=O)CCC2C(=O)NCCCN2CCCCC2C)cc1 (stereo not drawn) | >57 | i
NS(=O)(=O)c1ccc(-n2nncc2C23CC4CC(CC(C4)C2)C3)cc1 | >57 | i
O=C(CN1CCN(C(=O)N2CCCCC2)CC1)Nc1ccc(F)cc1 | >57 | i
CCCCN(C(=O)c1ccc(Cl)cc1)C1CC2CCC(C1)N2C (stereo not drawn) | nt | i
